VDR inh: blocks the human vitamin D receptor; P11473; VDR-SRC2-3 peptide fluorescence polarization, 2 h; Potency, µM, for inactives: max response, negative = inhibition, hits mostly inhibitors; 400,000 tested, 0.93% active; active = well fitted inhibition curve with a large enough effect; inconclusive = small, poorly fitted or top-dose-only effect, or another doubt; inactive = no such curve, though single readings can be large or run the other way; also: series mostly up to about 120 µM
Target sequence (P11473 whole entry, looked up): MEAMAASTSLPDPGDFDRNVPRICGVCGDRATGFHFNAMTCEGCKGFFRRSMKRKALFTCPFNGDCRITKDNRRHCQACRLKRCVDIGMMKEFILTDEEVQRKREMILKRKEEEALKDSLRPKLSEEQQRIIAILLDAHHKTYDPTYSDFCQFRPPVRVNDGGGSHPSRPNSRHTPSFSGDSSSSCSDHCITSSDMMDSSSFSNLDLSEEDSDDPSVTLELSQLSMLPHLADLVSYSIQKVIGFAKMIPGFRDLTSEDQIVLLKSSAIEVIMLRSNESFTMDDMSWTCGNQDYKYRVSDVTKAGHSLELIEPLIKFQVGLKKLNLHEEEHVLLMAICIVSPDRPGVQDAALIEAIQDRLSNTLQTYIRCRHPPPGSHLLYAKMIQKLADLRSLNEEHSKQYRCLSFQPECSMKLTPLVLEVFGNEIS
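Signal is fluorescence polarization, reporting how far test compounds block the interaction of VDR with the SRC2-3 coregulator peptide after a 2 h room-temperature incubation.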
An asterisk follows results filed as active; ? = inconclusive; & = joins results of further samples. % is scaled to controls: 0 for no effect and ±100 for the full control effect; potency is read from the fitted curve at half-maximal effect. Not all compounds are listed; the hit share may differ from the screen's.

SMILES	VDR inh
O=C(Cc1n[nH]c(=O)c2ccccc12)NC(c1ccccc1)c1ccccc1	2.4%
CN1C(=O)CCC(CCC(=O)O)(c2ccccc2O)C1=O (stereo unspecified)	-6.0%
COc1ccc(NC(=O)CS(=O)(=O)c2cccc(Cl)c2)cc1	?
COC(=O)Cc1c(C)c2ccc(O)c(CN3CCCC(C)C3)c2oc1=O (stereo unspecified)	16.7%
Cc1csc(NC(=O)CSc2nc(C(C)C)nc3ccccc23)n1	-9.1%
COC(=O)c1ccc(C)c(NC(=O)COC(=O)C2CC3CCCC(C2)C3=O)c1 (stereo unspecified)	-13.8%
Cc1cccc(C)c1NC(=O)COC(=O)c1nonc1N	16.9%
O=C(Nc1scc(-c2ccccc2)c1C(=O)O)c1ccc(F)cc1	-8.5%
O=C(Cn1cc([N+](=O)[O-])cn1)NCc1ccccc1Cl	8.9%
Cn1c(NC(=O)/C=C/c2c(F)cccc2Cl)cc(=O)n(C)c1=O	8.6%
O=C(Nc1ccn(Cc2c(F)c(F)cc(F)c2F)n1)c1ccc(COc2cc(Cl)ccc2Cl)o1	-11.1%
Cn1cnnc1SCC(=O)Nc1c(F)cc(F)cc1Br	-20.6%
CC(=O)Nc1ccc(OC/C=C(\C)Cl)cc1	-8.3%
S=c1nc[nH]c2c1[nH]c1ccccc12	-7.6%
COc1ccc(CCN(C(=O)C(F)(F)F)C(C(=O)NC2CCCCC2)c2ccc(C)s2)cc1 (stereo unspecified)	-7.8%
CNC(=O)CNC(=O)Nc1ccc(Cl)c(Cl)c1	11.4%
Cc1nn(-c2ccccc2)nc1C(=O)OCC(=O)N1CCC(C)CC1	1.9%
COc1ccc(C(=O)OC2CCCCC2CN(C)C)cc1 (stereo unspecified)	9.7%
O=C(NC(=O)N1CCCCCC1)c1ccc(Cl)cc1	-9.9%
COc1ccc(NC2CCCN(C(=O)c3ccc4[nH]c(C)c(C)c4c3)C2)cc1 (stereo unspecified)	8.5%
Cc1ccc(OCCOC(=O)c2c(-c3ccccc3)noc2C)cc1	4.3%
CN(C)C(=O)c1ccc(-c2cncnc2NCc2cccs2)cc1	?
Cc1cc(S(=O)(=O)n2ccnc2C(C)C)cc([N+](=O)[O-])c1C	-6.0%
CCC(Sc1nc(N)cc(N)n1)C(=O)O (stereo unspecified)	17.1%

Structural class: those above containing an aryl thioether with sulfur outside any ring.
SMILES	VDR inh
Cc1csc(NC(=O)CSc2nc(C(C)C)nc3ccccc23)n1	-9.1%
Cn1cnnc1SCC(=O)Nc1c(F)cc(F)cc1Br	-20.6%
CCC(Sc1nc(N)cc(N)n1)C(=O)O (stereo unspecified)	17.1%

(further entries)
SMILES	VDR inh
Cc1cc(C)c(S(=O)(=O)N2CCN(C(=O)CCOc3ccccc3C)CC2)c(C)c1	-23.8%
Cc1cccc(C2=NN(c3ccc(Br)cc3)[C@@H](C(=O)N3CCOC3=O)[C@@H]2c2ccc(F)cc2)c1	2.2%&-0.7%
Cc1ccc(NC(=O)CS(=O)CC(=O)N(CC(=O)NC2CCCC2)c2ccc3c(c2)OCCO3)cc1 (stereo unspecified)	3.0%
CCN(CC)CCc1c(C)[nH]c(C(=O)OCc2ccccc2)c1C	-3.8%
CCOc1ccc(C(=O)NCC(=O)OCC(=O)NC2CCCC2)cc1	10.8%
CC(=O)c1ccc(NC(=O)CN2CCC(NC(=O)C3CCCCC3)CC2)cc1	-7.5%
Fc1cccc(NC(=S)NNc2ccccc2)c1	39.8µM*
O=c1oc2c(F)cc(F)cc2cc1S(=O)(=O)c1ccc(F)cc1	1.1%
O=c1[nH]c2c(c(=O)n1Cc1ccccc1)CCC2	-3.4%
Cn1c(CCN2CCCCC2)nc2cc(NC(=O)C3CCCCC3)ccc21	3.8%
CN(C)c1ccc([N+](=O)[O-])cc1C(=O)NCC(c1ccco1)N(C)C (stereo unspecified)	5.9%
CCCc1nn(C)c2c(=O)[nH]c(-c3cc(S(=O)(=O)N(CCO)CCO)ccc3OCC)nc12	0.9%
CC(NC(=O)Nc1cccnc1)(C(F)(F)F)C(F)(F)F	-7.8%
O=C(Nc1ccccc1)C1=C[C@H](c2coc3ccccc3c2=O)C[C@H](OCc2ccc(CO)cc2)O1	4.7%
S=C(Nc1ccc2c(c1)OCCO2)Nc1ccccc1Cl	-1.6%
CC(=O)OCC(=O)Nc1ccccc1OC(F)F	-7.1%
O=C(CCn1cnc2onc(-c3ccc(F)cc3)c2c1=O)Nc1cccc(C(F)(F)F)c1	13.2%
COc1cc(OC)c(C(=O)OCC(=O)N2CC(=O)Nc3ccccc32)cc1OC	-4.3%
CC(C)CC(=O)N1CCN(Cc2cccc(F)c2)CC1	0.4%
CCCOc1ccc(Cc2c(COCC)[nH]c(=S)[nH]c2=O)cc1	11.2%
Clc1ccc(CSc2nnc(Cn3cnc4ccccc43)o2)cc1	-10.3%
CCOC(=O)C1(Cc2ccccc2C)CCCN(C(=O)c2ccccn2)C1 (stereo unspecified)	-4.6%
COc1ccccc1CC(=O)Nc1sc2c(c1C(N)=O)CCCC2	26.2%
Cc1cccc(NC(=S)N2CCN(C(=O)C3CCCO3)CC2)c1 (stereo unspecified)	-24.8%
COc1ccccc1N1CCN(c2ncc(C(=O)N3CCN(c4cccc(Cl)c4)CC3)c3ccccc23)CC1	14.8%
COc1ccc(CCn2c(O)cc3nn(-c4nc5ccccc5s4)c(=O)c-3c2C)cc1	-5.0%
Cc1ccc(/C=C2\SC(=S)N(/N=C/c3cc([N+](=O)[O-])ccc3O)C2=O)o1	?
Cc1cc2cc(CNC(=O)C3CCCC3)ccc2n1C	-0.8%
CCCOCC1CC(CCc2nc(=S)[nH][nH]2)C(=O)O1 (stereo unspecified)	?
COc1cccc(COC(=O)c2cc(=O)[nH]c3ccc(S(=O)(=O)N4CCOCC4)cc23)c1OC	-14.4%
Cc1onc(-c2ccccc2)c1C(=O)NCC1COc2ccccc2O1 (stereo unspecified)	-1.4%
O=C(Cn1ccc2cc(S(=O)(=O)N3CCCCCC3)ccc21)NCc1cccc(Cl)c1	18.1%
O=C(NN=C1CCC(c2ccccc2)CC1)c1ccccc1-n1cccc1 (stereo unspecified)	-4.5%
COc1cc2c(cc1OC)CN(Cc1ccc(F)cc1)CC2	-3.0%
O=C1Nc2ccccc2N(O)N1c1ccc(S(=O)(=O)Nc2ccccn2)cc1	9.3%
Cc1ccc(-c2noc(CCC(=O)Nc3cccc(C#N)c3)n2)cc1	9.5%
COC(=O)C1=C(COc2ccccc2)NC(=O)NC1c1ccc2ccccc2c1 (stereo unspecified)	-9.6%
COCCn1c(=NC(=O)c2sc3ccccc3c2Cl)sc2cc(S(N)(=O)=O)ccc21	22.7%
Cc1ccc(-c2csc(NC(=O)CCNC(=O)c3ccc(Cl)cc3)n2)cc1	20.6%
CCn1c(/C(C#N)=C/c2ccccc2Cl)nc2ccccc21	?
CS(=O)(=O)N(Cc1ccccc1Cl)c1ccc(C(=O)N2CCCC2)cc1	20.2%
OCCN(CCO)c1ccc(C(c2ccccc2Cl)c2ccc(N(CCO)CCO)cc2Cl)c(Cl)c1	-4.7%
CN1c2ccccc2Oc2nnc(N3CCN(Cc4ccccc4)CC3)cc21	9.0%
Cc1ccc(S(=O)(=O)CC(=O)Nc2ccc3nc(C)sc3c2)cc1	4.7%
O=C(CNS(=O)(=O)c1ccc(Cl)cc1)N1CCN(c2ccc(F)cc2)CC1	11.2%
C=CCn1c(O)c(N=Nc2ccccc2C)c2ccccc21	-19.5%
COC(=O)c1ccc(OC)c(CN2CCCN(Cc3ccc(C)cc3)S2(=O)=O)c1	-5.1%
Nc1cccc2c1C(=O)N(C(=O)/C=C/c1ccc(F)cc1)C2=O	28.2µM*
Cc1nc(SCC(=O)N(C)C2CCS(=O)(=O)C2)c(C#N)c(C)c1C (stereo unspecified)	-7.0%
O=C(COC(=O)c1cc(-c2ccccc2)nc2ccccc12)NC1CC1	16.9%
O=C(NCc1cccc(Cl)c1)c1ccc(-c2csnn2)cc1	-13.1%
CC(C)(C)c1cc(C(F)(F)F)n2ncc(-c3ccccc3)c2n1	-8.6%
CCOc1ccccc1C(=O)N(C)Cc1cc2ccccc2[nH]c1=O	-5.3%
O=C(Nc1csc(Cc2c(Cl)cccc2Cl)n1)NN1CCOCC1	14.4%
CCn1c(=O)sc2cc(NS(=O)(=O)c3ccc(C)cc3)ccc21	5.0%
COc1ccc(NCc2nnc3n2CCCCC3)c(OC)c1	-4.3%
O=C(c1cc2ccccc2oc1=O)N(Cc1cccs1)CC1CCCO1 (stereo unspecified)	22.3%
Cc1nn(C)c(Oc2ccccc2)c1CCNC(=O)CC(C)C	11.7%
COC(=O)CN1C(=O)C(O)=C(C(C)=O)C1c1ccc([N+](=O)[O-])cc1 (stereo unspecified)	7.8%
Cc1cccc(CCNC(=O)c2cc3c(=O)n(C)c4ccccc4c3n2C)c1	-18.3%
Next part.
SMILES	VDR inh
CC(C)NC(=O)NC(=O)COC(=O)c1cccc(S(=O)(=O)N2CCCCC2)c1	4.6%
CCOc1ccccc1OCCN[C@H](C)Cc1ccc(OC)c(S(N)(=O)=O)c1	9.1%
O=C(OCCC12CC3CC(CC(C3)C1)C2)c1ccc(NCc2cc(O)ccc2O)cc1	-0.3%
CC(=O)NCCOc1ccc2oc3ccccc3c2c1	2.8%
Cn1nnc2c(N3CCN(c4cccc(C(F)(F)F)c4)CC3)ncnc21	-5.3%
CCCn1c(CCCNC(=O)c2ccccc2OC)nc2ccccc21	1.6%
O=C(CSc1ccc2c(c1)OCCO2)Nc1ncccc1O	-1.5%
O=C(Nc1cccc(C(=O)N2CCCC2)c1)C1CCC1	-7.8%
O=C(NNS(=O)(=O)c1ccc2ccccc2c1)c1cc(-c2ccccn2)nc2ccccc12	-16.2%
COc1ccc(OCCOc2ccc(C)nc2[N+](=O)[O-])cc1	13.7%
O=C(O)c1cc(-c2cccs2)nn1-c1ccc(F)cc1	2.7%
COc1ccc(NC(=O)CSc2nc(N)c(NC(=O)c3ccccc3F)c(=O)[nH]2)cc1	-0.1%
Cc1c(C=O)c2ccccn2c1C(=O)c1ccc(F)cc1	-6.0%
O=C(NN1C(=O)/C(=C/c2ccc(O)cc2)SC1=S)c1cccc(O)c1	-18.3%
Cc1ccc(CN2C(=O)C(C)(C)Oc3ccc(C(=O)N4CCCCC4)cc32)cc1	8.6%
Cc1ccc(NC(=S)Nc2ccc(S(=O)(=O)Nc3ncccn3)cc2)c(C)c1	0.0%
C/C(=N/OCc1ccc(Br)cc1)c1ccccn1	-1.9%
CC(=O)c1c(C)[nH]c(C(=O)CN2C(=O)NC(C)(c3ccc(C)cc3)C2=O)c1C (stereo unspecified)	-20.0%
Cc1ccnc(NC(=O)c2cc(-c3ccc(Cl)s3)nc3ccccc23)c1	15.5%
Cc1cccc2nc(-c3ccco3)c(Nc3ccccc3)n12	17.6%
CCN1CCSc2ccc(C(=O)NCc3ccccc3C)cc21	-4.9%
N#CC(C#N)=C/C(C#N)=C(/N)N1CCN(c2ccc(Cl)cc2)CC1	-0.8%
O=C(N/C(=C\c1ccccc1)C(=O)N1CCN(CCO)CC1)c1ccccc1	-13.2%
O=C1CC(c2nc3ccccc3n2Cc2c(F)cccc2Cl)CN1c1cccc(C(F)(F)F)c1 (stereo unspecified)	-7.9%
CCOc1ccc(N(C)S(=O)(=O)c2ccc(C)c(C(=O)Nc3nnc(C4CC4)s3)c2)cc1	-23.2%
CC1Sc2ccc(S(=O)(=O)N3CCC(C(=O)N4CCN(C)CC4)CC3)cc2NC1=O (stereo unspecified)	-11.7%
CCS(=O)(=O)n1nc(-c2ccco2)nc1NCc1ccc(C(C)C)cc1	13.6%
CCCOc1ccc(C2=NNC(c3cccs3)=Nc3ccc(OC)cc32)cc1	-6.8%
CCOC(=O)c1c(NC(=O)CSc2cn(CCNC(=O)c3c(F)cccc3F)c3ccccc23)sc2c1CCCC2	10.3%
COC(=O)C1C(c2ccccc2)C(C(=O)N2CCOCC2)C1c1ccccc1 (stereo unspecified)	1.8%
Oc1c(/C=N/Nc2cccc3cccnc23)ccc2ccccc12	2.1%
CCCn1c(=O)c(C(=O)NCCc2ccc(OC)cc2)c(O)c2ccccc21	-23.0%
FC(F)(F)c1ccc(Sc2nnc(-c3cccs3)n2CC2CCCO2)nc1 (stereo unspecified)	8.0%
Cc1ccnc(NS(=O)(=O)c2ccc(N3C(=O)C4CCCCC4C3=O)cc2)n1 (stereo unspecified)	2.8%
COc1ccccc1NC(NC(=O)c1ccco1)C(=O)c1ccccc1 (stereo unspecified)	7.3%
COc1ccccc1C(C)NC(=O)c1cc(=O)[nH]c2ccccc12 (stereo unspecified)	1.1%
O=C(NCCc1ccc(Cl)cc1)c1ccc(CSCc2ccccc2Cl)o1	2.7%
Cc1nn(C)cc1CN1CCCC(C(=O)c2ccc(-c3ccccc3)c(F)c2)C1 (stereo unspecified)	-10.1%
O=C1CC(NS(=O)(=O)c2cc(F)ccc2F)CN1c1ccc2c(c1)OCCO2 (stereo unspecified)	19.9%
COc1ccc(OC)c(-c2csc(NC(=O)Cc3ccccc3OC)n2)c1	-0.6%
CCCCNCCS(=O)(=O)NCc1ccc(OC)cc1	-15.8%
CN(C)CCN(C(=O)/C=C/c1cccs1)c1nc2ccc(F)cc2s1	-6.6%

Seven entries out of the list above, ordered by the number in VDR inh, lowest first.
molecule | VDR inh
CCOc1ccc(N(C)S(=O)(=O)c2ccc(C)c(C(=O)Nc3nnc(C4CC4)s3)c2)cc1 | -23.2%
O=C(NN1C(=O)/C(=C/c2ccc(O)cc2)SC1=S)c1cccc(O)c1 | -18.3%
O=C(N/C(=C\c1ccccc1)C(=O)N1CCN(CCO)CC1)c1ccccc1 | -13.2%
CN(C)CCN(C(=O)/C=C/c1cccs1)c1nc2ccc(F)cc2s1 | -6.6%
FC(F)(F)c1ccc(Sc2nnc(-c3cccs3)n2CC2CCCO2)nc1 (stereo unspecified) | 8.0%
O=C(Cn1cc([N+](=O)[O-])cn1)NCc1ccccc1Cl | 8.9%
CCCOc1ccc(Cc2c(COCC)[nH]c(=S)[nH]c2=O)cc1 | 11.2%

Screening results (PubChem BioAssay)
